# Screens from PubChem BioAssay.
# NPYLR7 agonist = mosquito NPYLR7 agonism; HEK293T NPYLR7/Galpha15, GCaMP6s calcium fluorescence; activation, % at 10 µM; 270,000 compounds, 0.15% hits; in the data active = activation above about 40%;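 note: 0% = vehicle and 100% = reference agonist at the receptor; some compounds past the cut are filed as inactive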
# NPYLR7 agonist max-min = second read-out of NPYLR7 agonist, no call of its own (marks repeat the call); activation, %; measured here: Max-Min RFU normalised activation; some inactives read as strong as hits;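 span of the calcium signal over five minutes; 0% = vehicle and 100% = native peptide agonist; compound fluorescence can raise it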
# * marks the source's active call; other numbers are inactive results; & = joins results of further samples. This is a subset; count on the stated rates, not on these rows.
SMILES,NPYLR7 agonist,NPYLR7 agonist max-min
Cc1nn(C)c(C)c1C(=O)NCCc1nc(C2CCCCC2)cs1,2.9,0.3
O=C(CC1CC2CCC1C2)Nc1ccnn1C1CCCC1 (configuration not stated),5.1,7.3
CC(C)CC(=O)NCCCn1nc(-c2ccc(F)cc2)ccc1=O,-0.8,-3.4
CCOC(=O)C1(Cc2ccc(Cl)cc2)CCN(C(=O)Nc2cccc(C)c2C)CC1,0.3,-2.0
C=CCCC(=O)N1CCC(c2cn(CCOCC)c3ccccc23)CC1,3.4,-1.4
Cc1cc(C(=O)C(C#N)c2nc3ccccc3[nH]2)c2c(C)nn(C)c2n1 (configuration not stated),1.8,0.7
Cc1ccccc1C(=O)NC(=S)N(c1ccccn1)C(C)C,0.7,0.8
O=C(CSc1nc2ccccc2s1)NCc1cc(-c2ccc3c(c2)OCCO3)on1,2.9,2.2
O=C(NC1CC1)c1ccnc(/C=C/c2ccccc2)c1,-5.5,-9.5
CCC1C2=C(CC(C)(C)CC2=O)N=C(SC)C1C#N (configuration not stated),-2.4,-3.9
COc1cc(C(C)=O)ccc1OC(C)C(=O)Nc1ccc(F)cc1F (configuration not stated),10.8,10.0
CCCc1nc(C)c(CNC(=O)c2c(Cl)c(C)nn2C)s1,3.1,3.3
O=C(CCC1CCCCC1)Nc1ccc2c(c1)OCCO2,-0.9,-11.6
COc1cc(C(=O)Nc2oc3ccccc3c(=O)c2-c2ccccc2)cc(OC)c1OC,11.8,11.3
Cc1ccnc(S(=O)(=O)NC(=O)c2ccc(C)o2)c1,1.6&-7.2,0.5&-7.5
C=CCn1nnc(NC(=O)c2ccc(OCC(C)C)cc2)n1,0.2,-0.7
CN(Cc1ccccc1)C1CCCN(C(=O)/C=C/c2ccco2)C1 (configuration not stated),1.1,0.4
COCCCN(CC(=O)N1CCc2sccc2C1COc1ccc(Cl)cc1)C(C)=O (configuration not stated),13.2,12.3
COCC(O)CN(Cc1ccc(F)cc1)CC1CC(c2ccccc2)=NO1 (configuration not stated),-2.6,4.4
CN(C)C(=O)c1ccc2c(c1)N(C)C(CC(=O)N(C)CCc1cn[nH]c1)CO2 (configuration not stated),7.5,6.1

# Sorted by length of the SMILES (lowest first): part of the list above
SMILES,NPYLR7 agonist,NPYLR7 agonist max-min
C=CCCC(=O)N1CCC(c2cn(CCOCC)c3ccccc23)CC1,3.4,-1.4
COCC(O)CN(Cc1ccc(F)cc1)CC1CC(c2ccccc2)=NO1 (configuration not stated),-2.6,4.4
COc1cc(C(=O)Nc2oc3ccccc3c(=O)c2-c2ccccc2)cc(OC)c1OC,11.8,11.3

# Filtered by structure: the entries above containing fluorine.
SMILES,NPYLR7 agonist,NPYLR7 agonist max-min
CC(C)CC(=O)NCCCn1nc(-c2ccc(F)cc2)ccc1=O,-0.8,-3.4
COc1cc(C(C)=O)ccc1OC(C)C(=O)Nc1ccc(F)cc1F (configuration not stated),10.8,10.0
COCC(O)CN(Cc1ccc(F)cc1)CC1CC(c2ccccc2)=NO1 (configuration not stated),-2.6,4.4

# Quoted from the listing:
# NPYLR7 agonist with `O=C(CC1CC2CCC1C2)Nc1ccnn1C1CCCC1` (configuration not stated) → 5.1
# NPYLR7 agonist max-min with `CC(C)CC(=O)NCCCn1nc(-c2ccc(F)cc2)ccc1=O` → -3.4
# NPYLR7 agonist max-min with `CCOC(=O)C1(Cc2ccc(Cl)cc2)CCN(C(=O)Nc2cccc(C)c2C)CC1` → -2.0

# More entries follow:
SMILES,NPYLR7 agonist,NPYLR7 agonist max-min
Cc1ccc(NS(=O)(=O)c2ccc(F)cc2[N+](=O)[O-])c(F)c1,-5.0,11.8
Cc1cccnc1CN1CCN(CC2(c3ccc(F)cc3)CCOC2)CC1 (configuration not stated),23.9,15.1
CCOC(=O)c1c(N)sc(C(=O)Nc2ccc(Cl)cc2)c1C,-2.9,-6.2
O=C(c1ccccn1)C1CCCN(Cc2nc(Cc3cccc(C(F)(F)F)c3)no2)C1 (configuration not stated),5.6,1.6
CC(C)c1noc(-c2ccc(NCCN3CCCCC3=O)nc2)n1,9.7,4.0
CN1CCC(N(C)C(=O)Cc2cccc(F)c2)CC1,7.0,3.7
O=C([C@H]1Cc2ccccc2CN1)N1C[C@@H]2[C@H](C1)[C@H]1CC[C@@H]2O1,10.5,8.4
CC(C)=CCC/C(C)=C/CNC(=O)c1ccc(SC(F)(F)F)cc1,0.4,-0.9
CN(CCC#N)c1ccc(CN2CCN(CC(=O)N3CCCC3)CC2)cc1,3.4,3.7
Cc1c(NC(=O)N2CCCC(O)C2)cccc1OC(F)F (configuration not stated),-2.5,-2.0
O=S(=O)(NCc1ccccc1)N1CCCC(OCc2ccccn2)C1 (configuration not stated),-2.1,-2.3
CCc1nc(C)sc1CNc1nc(CCN)nc2ccccc12,27.2,11.0
Cc1ccccc1CN1C(=O)C(C)Sc2ccccc21 (configuration not stated),8.0,4.1
CCCCN(CC(=O)N(CCc1ccc(OC)c(OC)c1)Cc1cccs1)C(=O)c1ccc([N+](=O)[O-])cc1Cl,-1.5,-7.8
CN(CC(=O)NC1CC1c1cccc(F)c1)c1ccc(Cl)cn1 (configuration not stated),1.9,1.3
O=c1c(-c2ccc(Cl)cc2)coc2cc(O)ccc12,5.0,-3.2
CC(C)Cc1c(-c2ccccc2)ncn1CCN,22.6,17.0
CCN(CC)C(=O)CN(C)S(=O)(=O)c1cc([N+](=O)[O-])cc(C)c1C,4.8,4.8
c1ccc(-c2c[n+]3c(n2-c2ccccc2)CCCCC3)cc1,19.4,14.8
COc1ccc(-c2noc(CN3CCN(Cc4csc(C)n4)CC3)n2)c(OC)c1OC,14.5,14.1
Cc1nnc2c(C(=O)NCCOc3ccccc3)cccn12,-1.1,-2.2
CCN(CC(=O)N(Cc1cccn1Cc1ccccc1Cl)CC(C)C)C(=O)c1ccc([N+](=O)[O-])cc1Cl,25.6,28.9
CCN(CCc1nc2ccc(F)cc2[nH]1)C(=O)CC1C(=O)NCCN1C(C)C (configuration not stated),17.0,3.8
Cc1ccc(-n2c3c(c(=S)[nH]c2=O)CCC3)cc1,0.6,-1.9
Cc1cccc(OCC(=O)Nc2c(C(=O)Nc3ccc([N+](=O)[O-])cc3)oc3ccccc23)c1,-5.8,-7.7
CCCCc1ccc(NC(=O)CSc2n[nH]c(=O)c3cc(-c4ccco4)nn23)cc1,0.9,-0.9
CCN(Cc1ncc[nH]1)Cc1ccccc1F,-1.4,-0.5
Cc1ccc(NC(=O)OCC(F)(F)F)s1,-5.0,-7.2
COc1cc(O)ccc1CN1CCN(Cc2cc(C)cc(C)c2)C(=O)C1,-4.1,-11.4
OC(c1cc(C(F)(F)F)nc2c(C(F)(F)F)cccc12)C1CCCCN1 (configuration not stated),-16.4&-0.9,-19.7&-4.5
Cc1cc(C)cc(Oc2nc(C)nc(Cl)c2N)c1,-0.4,-5.1
CCC(C(=O)NC(C)C)n1nc(C)n2c(cc3occc32)c1=O (configuration not stated),-12.8,-10.3
N#CC1C(=N)C(C#N)(C#N)C(c2ccccc2Cl)C2CSCC=C12 (configuration not stated),5.0,6.5
CCOC(=NC(C)CCCN(CC)CC)NC(=O)c1cccc(OC)c1 (configuration not stated),10.4,20.0
CCC(C)N(Cc1cc(NC(=O)c2cccc(F)c2)ccc1N(C)C)C(=O)Nc1cccc(F)c1 (configuration not stated),7.1,19.8
O=C(CNC(=O)c1ccccn1)Nc1cc(Cl)ccc1Cl,8.3,6.4
O=c1n(Cc2cccc(F)c2F)nc(C2CCNCC2)n1Cc1ccccc1,3.7,0.3
O=C(NCc1ccc(F)cc1)N(Cc1ccoc1)CC(F)(F)F,-7.2,-15.0
O=C(O)CCC(C(=O)O)n1c(O)c(C2=c3ccccc3=NC2=O)sc1=S (configuration not stated),0.9,-7.9
CC1Cc2nc(SCC(=O)NCC3CCCO3)n(-c3ccc(F)cc3)c(=O)c2S1 (configuration not stated),0.9,-1.4

# Entries of single compounds as entered above.
# Profile of N#CC1C(=N)C(C#N)(C#N)C(c2ccccc2Cl)C2CSCC=C12 (configuration not stated) : NPYLR7 agonist = 5.0; NPYLR7 agonist max-min = 6.5
# Profile of O=c1c(-c2ccc(Cl)cc2)coc2cc(O)ccc12 : NPYLR7 agonist = 5.0; NPYLR7 agonist max-min = -3.2

# Additional entries:
SMILES,NPYLR7 agonist,NPYLR7 agonist max-min
CCOC(=O)c1cc(C2CC2)n(C2CCN(C(=O)c3cccc(OC)c3)CC2)n1,28.2,15.2
CSc1ccc(C(NC(=O)C(C)Oc2ccccc2)c2cccc(Cl)c2Cl)cc1 (configuration not stated),24.9,7.7
CN(CCO)Cc1cccc(C(=O)Nc2cccc3c2CCC3)c1,-1.5,-2.1
O=S(=O)(NC1CCC(c2ccccc2)CC1)c1cccs1 (configuration not stated),-1.4,-2.8
N#CC1(C(=O)Nc2cccc(C(=O)Nc3ccccn3)c2)CCCC1,2.8,2.4
COC(=O)CCc1c(C)nn(-c2ccc(C(=O)NC(c3ccccc3)c3ccccn3)cc2)c1C (configuration not stated),-8.1,-9.9
COC(=O)C(C)Sc1nc2c([nH]c3ccccc32)c(=O)n1C (configuration not stated),10.7,10.5
O=C(Cc1cccs1)NC1CCN(c2ccccc2C(=O)N2CCN(C3CCCC3)CC2)CC1,-2.4,3.9
CCN(CCN(C)CC(F)(F)F)C(=O)c1ccccc1-n1cccn1,2.3,0.1
COc1ccc(-c2cc(C(=O)O)cc(S(=O)(=O)N3CCCCCC3)c2)cc1OC,4.0,2.0
COCCN1CCN(c2nc(C(=O)Nc3ccccc3)cs2)C1=O,-6.0,-6.4
CCc1oc2ccccc2c1CN(C)CC(=O)NN1C(=O)NC2(CCCCC2)C1=O,-2.7,-2.7
O=C1NCC(C(=O)NCCOc2cccc3ccccc23)N1 (configuration not stated),13.5,5.3
CCCn1c(=NC(=O)c2nc3ccccc3s2)sc2cc(S(C)(=O)=O)ccc21,4.1,3.4
NC1=NC(=O)/C(=C\c2cc3c(cc2Cl)OCO3)S1,5.6,1.3
Oc1cccc(C2c3cccn3CCCN2Cc2cc(Cl)ccc2O)c1 (configuration not stated),0.4,11.2
COc1cccc(C2c3[nH]c4ccccc4c3CCN2CC2CC2)c1 (configuration not stated),-1.4,-4.3
Cc1nnc(NC(=O)c2ccc(C)c(C)c2)s1,7.5,7.3
COc1ccc(/C=C2N=C(/C=C/c3cccc([N+](=O)[O-])c3)OC\2=O)c(OC)c1OC,-1.9,-5.8
CCOC(=O)CCC(=O)N1CCN(c2nc3nccc(-c4cccc(C(F)(F)F)c4)n3n2)CC1,2.0,0.6
COc1ccc(-c2ccc(CCC(=O)NC3CCCc4ccccc43)n2-c2ccc(SC)cc2)cc1 (configuration not stated),-4.5,1.7
CCSc1nc(CC(=O)NCCc2cnc[nH]2)cs1,5.0,3.2
COc1nc2ccccc2cc1-c1cnc(N)c(C)c1,4.8,3.8
CCC(COC)NC(=O)c1c(C)noc1-c1cc(OC)c(OC)c(OC)c1 (configuration not stated),23.6,15.1
O=C(NCC1CCS(=O)(=O)C1)c1sccc1-c1ccc(F)cc1 (configuration not stated),-20.2,-20.9
NC(=O)[C@@H]1CCCN1Cc1cccc(C(=O)Nc2ccnn2C2CCCC2)c1,13.6,2.7
Cc1cc(Br)cc2c1N(C(=O)C1CCOCC1)CCC2,8.5,4.1
O=[N+]([O-])c1ccc(-c2csc(Nc3cccc4ccccc34)n2)cc1,4.2,2.7
O=C(NC1CCN(C(=O)c2cc(-c3ccccc3)nn2-c2ccccc2)CC1)c1ccccc1,4.8,8.1
Cc1cccc(NC(=O)c2nnn(Cc3ccccc3)c2N)c1,-0.9,4.7
COc1ccc(CCNC(=O)c2c(C)noc2-c2cccnc2)cc1OC,5.2,8.1
CC(c1ccccc1Cl)N(C)C(=O)Nc1ccc(S(C)(=O)=O)cc1 (configuration not stated),-2.5,-1.6
O=C(NC1CC(=O)N(c2ccccc2)C1)C1CC(c2ccccc2)=NO1 (configuration not stated),-0.3,-0.5
Cc1ccc(S(=O)(=O)N2CCC(C(=O)N3CCCc4cccc(C)c43)CC2)cc1C,0.5,3.0
NC1=NC(=O)/C(=C/c2cc(Br)c(O)c(Br)c2)S1,16.0,16.1
CCC(=O)N1C(C(=O)NCc2ccccc2)COC12CCCC(C)C2 (configuration not stated),5.9,2.8
Cc1ccc(C(=O)N[C@H](c2nnc3c(C(F)(F)F)cccn23)C(C)C)cc1[N+](=O)[O-],-7.5,-13.7
O=C1Nc2ccccc2Nc2c1cc([N+](=O)[O-])cc2[N+](=O)[O-],-3.1,-6.0
CC(=O)Nc1ccc(S(=O)(=O)Nc2c(C(C)C)cccc2C(C)C)cc1,-0.8,-5.8
COCc1cc(N2CCN(c3ccc(OC)cc3)CC2)nc(SCc2cccc(C(=O)NCc3ccncc3)c2)n1,-10.8,-7.9
CCN(C)C(=O)C(C1CCCC1)N1CCN(C(=O)c2ccccc2C(F)(F)F)CC1 (configuration not stated),10.4,21.8
CCN1CCN(Cc2nc3c(c(=O)n(C)c(=O)n3C)n2Cc2ccc(F)cc2)CC1,0.8,7.8
COc1ccc(S(=O)(=O)N2CCC(NS(=O)(=O)c3c(C)c(C)c(C)c(C)c3C)CC2)cc1,9.7,9.6
Cc1nn(CC(=O)O)c2c1C(c1ccc(-c3ccccc3Cl)o1)CC(=O)N2 (configuration not stated),6.5,3.5
COc1ccc(CNC(=O)c2cccnc2N2CCN(C(=O)c3sccc3C)CC2)cc1,-5.1,-17.4
Cc1ccc(CSc2nccn3nc(-c4cccs4)cc23)cc1,-3.7,-11.5
O=C(CN1CCc2ccccc21)Nc1cc2c(cc1Cl)OCCCO2,-4.3,-6.1
O=C(c1cc2c(nc1Cl)CCC2)N1CCC(n2c(=O)[nH]c3ccccc32)CC1,5.1,0.1
Cc1cccc(NC(=O)NCCNc2cc(-n3ccnc3C)ncn2)c1C,-16.3,-20.9
